Tgondii IFNg = T. gondii growth inhibition under IFN-gamma; Toxoplasma gondii growth in IFN-gamma-treated host cells; stronger effect = lower value; reference of the scale not given here; activity change, negative = inhibition, %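 (about 20 µM by stock and volumes)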; actives 3.8% (n = 69,000);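 active = below -70%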;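 note: host cells are HeLa cells infected with Toxoplasma gondii; parasite growth read as luciferase light; one replicate is shown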
The depositor's hits bear a star; i = inactive; & = joins results of further samples. Not all compounds are listed; rates above refer to the full screens.

mol,Tgondii IFNg
CCOc1ccccc1NC(=O)N1CCC2(CC1)NC(=O)c1ccc(Cl)cc1N2C,20
CCS(=O)(=O)NCC[C@@H]1CC[C@@H](NC(=O)Nc2cc(Cl)cc(Cl)c2)[C@@H](CO)O1,-43
COc1ccccc1C(=O)NCCc1csc(-c2ccc(Cl)cc2)n1,-74*
CCn1c(C2CCCN(C(=O)CCN3CCCCCC3=O)C2)nn(C)c1=O (stereo not given),-18
Cc1ccccc1NC(=O)CSc1nnc(C)c2ccccc12,2
Cc1ccc(C)n1C(Cc1ccccc1)C(=O)O (stereo not given),-68
COc1ccc(NC(=O)N2CCSC2c2ccc(Cl)cc2)cc1 (stereo not given),35
O=C(CN1C(=O)CCc2cc(Br)ccc21)NCc1ccccc1,13
CCCNC(=O)C[C@@H]1CC[C@H]2[C@@H](COC[C@@H](O)CN2C(=O)c2ccc(F)cc2)O1,4
Cc1ccc(-c2nc(CCNC(=O)C(=O)Nc3cccc(F)c3)cs2)cc1,246

Another view of part of the listing above:
COc1ccccc1C(=O)NCCc1csc(-c2ccc(Cl)cc2)n1
  Tgondii IFNg: -74*

CCOc1ccccc1NC(=O)N1CCC2(CC1)NC(=O)c1ccc(Cl)cc1N2C
  Tgondii IFNg: 20

CCCNC(=O)C[C@@H]1CC[C@H]2[C@@H](COC[C@@H](O)CN2C(=O)c2ccc(F)cc2)O1
  Tgondii IFNg: 4

(listing goes on)
mol,Tgondii IFNg
O=C(c1ccccn1)N1[C@@H](CO)[C@@H](c2ccccc2)C12CN(Cc1ccccc1F)C2,-21
O=C(NCCc1csc(-c2ccc(C(F)(F)F)cc2)n1)c1ccccc1F,i
Cc1ncsc1-c1nnc(C2CCCN2C(=O)c2ccsc2)o1 (stereo not given),75
CN1[C@H]2CC[C@@H]1CN(C(=O)c1ccccc1N1CCS(=O)(=O)CC1)CC2,3
O=C(NC(=S)N1CCCCCC1)c1ccco1,-1
Cc1cccc(N2CCCC3(CN(C(=O)[C@H]4CCCO4)CCO3)C2)c1 (stereo not given in full),2
CNC(=O)[C@H]1O[C@@H](n2cnc3c(NCc4cccc(I)c4)ncnc32)[C@H](O)[C@@H]1O,2
CC1=C(C(=O)NCCC2=CCCCC2)C2(CCN(S(C)(=O)=O)CC2)OC1=O,21
COc1ccc2c3c([nH]c2c1)[C@@H](CO)N(C(C)=O)CC31CCN(S(=O)(=O)c2ccccc2)CC1,58
C=C(C)C[C@H]1CCn2cc(nn2)COCCNC1=O,25
CCCc1nc(C)cc(N2CCC(Oc3ncccn3)CC2)n1,-2
c1ccc(-c2ncn(CC3OCCc4ccccc43)c2-c2ncc[nH]2)cc1 (stereo not given),4
C=CCOc1c(Cl)cc(C(=O)NCc2cnc(C)cn2)cc1Cl,8
O=C(NCCc1ccccc1)N1CC[C@@H]2Oc3ccccc3S(=O)(=O)N[C@@H]2CC1,2
O=C(Nc1cnc2n1CCCC2)c1ccc(-c2cn(-c3ccccc3)cn2)cc1,172
CCN1CCC2(CN(c3ncccn3)CC23CCN(C(=O)Cc2ccc(C)cc2)CC3)C1=O (stereo not given),-57
O=C(c1n[nH]c2c1CCCC2)N1CCCC2(C1)Nc1cccnc1NC2=NC1CCCC1 (stereo not given),-38
O=C(C[C@@H]1C=C[C@H](NC(=O)Nc2ccc3c(c2)OCO3)[C@H](CO)O1)NCCCN1CCOCC1,-11
CCC1=NOC(CNc2ncc(F)c(N3CCOCC3)n2)C1 (stereo not given),-47
Cc1ccc(CC(=O)Nc2ccc(-c3nc(Cn4cccn4)c(C)o3)cc2)cc1,-39
Cc1cccc(C(=O)N2CCc3onc(COCC4CC4)c3C2)c1,3
Cc1ccc(-c2nc(Cn3nnc(C(=O)NCc4ccc(C)o4)c3C)c(C)o2)cc1,-52
Cc1nc(CCNC(=O)C2CCN(C(=O)c3cccc(F)c3)CC2)cs1,-3
c1ccc(CC2=NNC3(CCCCCCC3)S2)cc1,8
CCC(=O)N1[C@@H]2c3ccc(-c4ccccc4OC)c(=O)n3C[C@@H]2[C@@H](CO)[C@@H]1C(=O)NCCCN(C)C,0
CC1(C)C(=O)N(O)C(C)(C)C(=O)N1O,-9
COc1ccc(Cl)cc1NC(=O)N1CCc2nc(-c3ccccc3)sc2C1,26
CC(=O)N1CCC[C@@]2(C(=O)NCC3CC3)CN(Cc3cnn(C)c3)C[C@H]2C1,3
CS(=O)(=O)N1CCO[C@H]2[C@@H](OCc3cccnc3)CC[C@H]21,37
C=CCn1cc(CNCc2ccccc2-n2ccnc2C)c(C)n1,-8
CCOC(=O)Cc1csc(NC(=O)Cc2ccc(C)cc2)n1,-69
Cc1onc(-c2ccccc2)c1C(=O)N1CCC(c2ccccc2C(=O)O)C1 (stereo not given),-45
COCCN1C(=O)CCc2cc(NC(=O)c3c(F)cccc3Cl)ccc21,29
Cc1ccc(CN2CCN(C3CCN(C(C)C)CC3)C(CCO)C2)cc1C (stereo not given),4
O=C(NCc1cc(=O)n2[nH]c(-c3cccs3)cc2n1)c1ccc2c(c1)OCO2,19
Cc1ccsc1S(=O)(=O)N1CC[C@@H]2OCCN(C)[C@@H]2C1,-9
CCC(=O)NC[C@@H]1[C@@H](c2ccc(-c3ccc(F)cc3)cc2)[C@@H](CO)N1C(=O)CC,-4
Cc1cc(-c2csc(NC(=O)CCc3nc(-c4cccnc4)no3)n2)ccc1F,9
O=C(c1ccoc1)N1CCCC2(COCCN(c3cccnc3)C2)C1 (stereo not given),4
CC(C)NC(=O)[C@@H]1CC[C@H]2[C@@H](CCN2c2ncc(F)cn2)O1,-1
COC(=O)c1cc2c(s1)-c1cc(F)ccc1OC2,36
O=C(NC1CCC(n2cnnc2)CC1)c1cnnn1-c1ccccc1 (stereo not given),-1
COc1ccc2c3c(n(C)c2c1)[C@H](CO)N(S(C)(=O)=O)CC31CCN(C(=O)C2CCCC2)CC1,-38
CCO[C@@H](Cc1ccc(OCCc2ccc(OS(C)(=O)=O)cc2)cc1)C(=O)O,-49
Cc1cc2cc(CN(C)c3ccc4c(c3)OCO4)c(=O)n(C)c2cc1C,-1
O=C(Nc1ccc(F)cc1)N1C[C@H]2[C@@H](c3ccccc31)[C@@H](CO)N2C(=O)c1ccncc1,21
Cc1ccc(CNC(=O)CN2C(=O)CCc3cc(Br)ccc32)cc1,-57
COc1cccc(OC)c1C(=O)N1CCN(C(=O)c2ccc(-n3cnnc3)cc2)CC1,8
C[C@@H]1CN([C@@H](C)CO)C(=O)CCCn2cc(nn2)CO[C@@H]1CN(C)S(=O)(=O)c1cccc(C#N)c1,-31
CCCC(=O)Nc1ccc2c(c1)OC[C@@H](C)N(S(=O)(=O)c1cn(C)cn1)C[C@H](C)[C@H](OC)CN(C)C2=O,114

(listing goes on)
mol,Tgondii IFNg
COc1ccc2c3c([nH]c2c1)[C@@H](CO)NCC31CCN(C(=O)C2CCOCC2)CC1,164
C[C@@H]1C[C@@H]2CN(S(=O)(=O)c3cccnc3)C[C@@H]2O1,12
O=C(NCC1Cn2nnc(-c3ccccc3)c2CO1)[C@H]1CCCO1 (stereo not given in full),-3
CN(C)CC(=O)N1[C@@H](C#N)[C@H](c2ccc(-c3cccc(C(=O)N(C)C)c3)cc2)[C@@H]1CO,2
CCC(C(=O)N1CCC(C)(C(=O)NCc2ccc(F)cc2F)CC1)c1ccccc1 (stereo not given),-4
CCC(=O)N1CCC(C#Cc2ccnc(Nc3ncccn3)c2)CC1,-22
O=C1CC[C@@H](NCc2ccccn2)[C@H](c2cc(F)cc(F)c2)N1,59
CC(=O)N1CCc2[nH]nc(C(=O)N3CC=CC3)c2C1,34
OCCN1CCc2c(c(COc3cccnc3)nn2CC2CC2)C1,53
CCN(CC)S(=O)(=O)c1ccc(NC(=O)C2COc3ccccc3O2)cc1 (stereo not given),-65
Cn1cc(N2C(=O)CCC3C2CCN3C(=O)c2ccccn2)cn1 (stereo not given),-6
CN(Cc1ccc(-n2cccn2)cc1)Cc1ccc(-c2ccn[nH]2)s1,10
COC(=O)c1ccc(NC(=O)CSc2nnnn2Cc2ccc3c(c2)OCO3)cc1,-2
COC(=O)C[C@H]1C=C[C@H](N)[C@H](CO)O1,30
COc1ccc2c(c1)NC1(CCN(C(=O)c3ccc(Br)cc3)CC1)c1cccn1-2,19
O=C(Cn1nnc(-c2ccc(S(=O)(=O)N3CCCC3)cc2)n1)NCC1CCCO1 (stereo not given),-44
Cc1ccc(S(=O)(=O)Nc2cnc3ccccc3c2)cc1,-53
COc1ccc(OC)c(NC(=O)CC(=O)NCC2CCCO2)c1 (stereo not given),3
O=C(O)CCC/C=C\C[C@@H]1[C@@H](/C=C/[C@@H](O)COc2cccc(Cl)c2)[C@H](O)C[C@@H]1O,14&23&8
Cc1ccc2[nH]c(C(=O)NCc3ccncc3)c(NC(=O)c3ccc(F)cc3)c2c1,-40

Looked up above:
Entry for CCN1CCC2(CN(c3ncccn3)CC23CCN(C(=O)Cc2ccc(C)cc2)CC3)C1=O (stereo not given) under Tgondii IFNg: -57
Entry for COC(=O)c1cc2c(s1)-c1cc(F)ccc1OC2 under Tgondii IFNg: 36

Next structures follow.
mol,Tgondii IFNg
COc1cccc(NC(=O)c2cc(-c3cn(-c4ccccn4)c(C)n3)n3ccccc23)c1,71
COc1c(C)cc(-c2ccc(C(=O)NCCCc3ccccn3)cn2)cc1C,-4
COc1ccc(S(=O)(=O)Nc2ccc3c(c2)CCC(=O)N3CC(C)C)cc1,30
CCn1ncc(C(=O)N2CCCC3(C2)NC(=O)c2ccccc2O3)c1C (stereo not given),3
OCCCN1CCN(c2nccc(C3CCCC3)n2)CC1,-10
COc1cccc(-c2ccc3c(c2)O[C@@H](CN(C)Cc2cccnc2)[C@@H](C)CN([C@@H](C)CO)S3(=O)=O)c1,-55
Cc1ccccc1NC(=O)C(=O)NCCc1sc(-c2ccc(F)cc2)nc1C,84
N#Cc1cc2[nH]c(=O)c(=O)[nH]c2cc1[N+](=O)[O-],14&10&7
CC1CCCC=C1N(C(=O)c1ccco1)C(C(=O)NC1CCCCC1)c1cccnc1 (stereo not given),-6
CCN1C(=O)C2(CCN(Cc3cccnc3)CC2)CC12CCN(C(=O)CC(C)C)CC2,-21
O=C(OOC(=O)c1ccccc1)c1ccccc1,-44
COc1ccc(C(=O)Nc2cc(C(F)(F)F)ccc2OCC2CCCO2)cc1OC (stereo not given),-10
CCc1nc(-c2ccc(C(=O)N3CCC4(CC3)OCCO4)cc2)cs1,26
CCOC(=O)[C@H](CCc1ccccc1)N[C@@H](C)C(=O)N1Cc2cc(OC)c(OC)cc2C[C@H]1C(=O)O,16
CCCNC(=O)N1CC2(C1)[C@H](c1ccccc1)[C@H](CO)N2Cc1ccc(Cl)cc1,-12
CC(C)N(C)C[C@@H]1OC[C@@H]2CCN(C(=O)c3ccccn3)C[C@H]21,-11
O=C(Cc1ccc(Cl)cc1)NC1CCSC1=O (stereo not given),-12
Cc1ccc(S(=O)(=O)n2c(N)nc3ccccc32)cc1,18
O=C(c1ccccc1F)N1CC2(C1)[C@H](c1ccccc1)[C@H](CO)N2CC1CCOCC1,-5
Cc1noc(C)c1S(=O)(=O)N(C)C[C@H]1Oc2c(NC(=O)c3ccc(-c4nccs4)cc3)cccc2C(=O)N([C@H](C)CO)C[C@H]1C,-64

Among those listed so far, these contain a thiophene ring, fused or not.
mol,Tgondii IFNg
Cc1ncsc1-c1nnc(C2CCCN2C(=O)c2ccsc2)o1 (stereo not given),75
O=C(NCc1cc(=O)n2[nH]c(-c3cccs3)cc2n1)c1ccc2c(c1)OCO2,19
Cc1ccsc1S(=O)(=O)N1CC[C@@H]2OCCN(C)[C@@H]2C1,-9
COC(=O)c1cc2c(s1)-c1cc(F)ccc1OC2,36
CN(Cc1ccc(-n2cccn2)cc1)Cc1ccc(-c2ccn[nH]2)s1,10

Further compounds follow.
mol,Tgondii IFNg
COc1ccc2c(c1)NC1(CCN(S(=O)(=O)c3ccc4c(c3)oc(=O)n4C)CC1)c1cccn1-2,7
COc1ccccc1-c1ccc([C@H]2[C@@H](CO)N(C(C)=O)[C@@H]2CN(C)C(C)=O)cc1,-8
Nc1ccccc1Sc1c(Cl)cncc1Cl,-65
CCc1cccc(NC(=O)CN2C(=O)CCc3cc(Br)ccc32)c1,18
Cc1ccc2c(c1)c(CNC1CCN(C(=O)C3CCCO3)CC1)nn2C (stereo not given),-5
CCn1c(C2CCN(C(=O)c3ccc4sc(C)nc4c3)CC2)n[nH]c1=O,1
CC(C)C/C=C(\CN1CCN2C(=O)CNC(=O)C2C1)c1ccccc1 (stereo not given),1
CN(C(=O)c1cc2cccnc2n(Cc2ccccc2)c1=O)c1ccccc1,74
CCN(Cc1cccc(C(=O)Nc2cn(C)nn2)c1)[C@H]1COC[C@@H]1O,5
COc1cccc(-c2noc(CN(C)S(=O)(=O)c3cc(Cl)ccc3Cl)n2)c1,60
NC(=O)N1CCN(C(=O)c2ccc(CSc3ccccn3)cc2)CC1,5
CCOc1ccc(-c2nc(Cn3nnc(C(=O)Nc4ccc(Cl)c(Cl)c4)c3C)c(C)o2)cc1,77
CCC(=O)N1[C@H](CO)[C@@H](c2ccccc2)[C@@H]1CN(C)C(=O)CN1CCOCC1,-13
CCOc1ccccc1-c1nc(CN(c2ccccc2)S(=O)(=O)c2ccccc2)c(C)o1,-49
Cc1cnc(CNC(=O)CCCn2cnc3ccccc3c2=O)cn1,-6
CC(C)C(NC(=O)c1cccc(-n2cnnc2)c1)c1cccs1 (stereo not given),115
COc1ccc(-c2ccc([C@@H]3[C@@H](CO)N4C(=O)CN(C(=O)C5CC5)C[C@@H]34)cc2)cc1,-50

Screening results from PubChem BioAssay.
